# PINK1 expr mod – changes PINK1 expression; PINK1 immunofluorescence, high-content cytometry, 24 h; AID 624263; 410,000 tested, 0.2% active; Potency, µM (doses to about 76.6 µM), for the others: top-dose activation (PINK1 increase), usual class: activators; active = well fitted activation curve with a large enough effect; inconclusive = small, poorly fitted or top-dose-only effect; inactive = flat fitted curve, though single readings scatter; cell line not stated here;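 also: potency is read from the fitted curve at half-maximal effect; % of control where 0% means no effect; nearly all actives have a fitted effect of over 65% in size; a mitochondrial uncoupler was the plate control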
#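 Cells are seeded, rested 12 hours, then given compound at five concentrations or DMSO for 24 hours. After fixation, blocking and antibody staining, PINK1 amount and mitochondrial localization are scored; CCCP serves as control.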
# Menin-MLL FL inh – displaces fluorescein MLL peptide from human menin; Fluorescence polarization, fluorescein-MLL peptide displacement from menin; FP activity change, % at 61.4 µM; 290,000 tested, under 10 active; inconclusive = falling polarisation curve, or a change in total fluorescence; inactive = total fluorescence flat and polarisation flat or rising; no compound was filed as active; the % refers to the polarisation; negative = inhibition;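 also: % of control where 0% means no effect; inhibitors lower the polarisation; unlabelled MLL peptide was the positive control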
# TRPML1 inh – inhibitors of human TRPML1 channel; activity change, negative = inhibition, % (no concentration beside the values); Q9GZU1; TRPML1-inducible cells, Ca2+ dye fluorescence, FDSS; stronger effect = lower value; inhibition of EC80 agonist-evoked calcium signal; AID 624415; 390,000 tested, 0.02% active; in the data active means activity change below about -50%; inconclusive means about -30% to -50%; inactive means above about -30%;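 also: stimulus is agonist 54-4 at its EC80 concentration; % is scaled to controls: 0 for no effect and ±100 for the full control effect; compound concentration not given in the record; the text of the record puts the active cut at -80%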
# Target sequence (Q9GZU1 whole entry, looked up): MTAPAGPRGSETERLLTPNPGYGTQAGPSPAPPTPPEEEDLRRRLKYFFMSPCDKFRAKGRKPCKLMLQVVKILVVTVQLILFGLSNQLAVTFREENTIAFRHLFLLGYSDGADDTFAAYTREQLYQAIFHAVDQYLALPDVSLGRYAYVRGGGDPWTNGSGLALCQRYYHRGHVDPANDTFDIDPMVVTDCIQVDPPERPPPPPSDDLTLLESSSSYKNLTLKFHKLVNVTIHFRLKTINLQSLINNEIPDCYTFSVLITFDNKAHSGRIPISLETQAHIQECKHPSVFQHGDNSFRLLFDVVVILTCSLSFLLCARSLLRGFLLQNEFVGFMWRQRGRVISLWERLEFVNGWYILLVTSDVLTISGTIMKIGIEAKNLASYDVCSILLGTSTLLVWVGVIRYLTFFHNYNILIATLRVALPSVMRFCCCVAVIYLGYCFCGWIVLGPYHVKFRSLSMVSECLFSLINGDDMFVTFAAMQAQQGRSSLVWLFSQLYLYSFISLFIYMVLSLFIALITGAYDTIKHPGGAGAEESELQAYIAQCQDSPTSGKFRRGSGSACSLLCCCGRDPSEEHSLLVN
#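 Calcium fluorescence in TRPML1-DL cells induced overnight with Tet: a 110 s read after compound pin addition, then a 110 s antagonist read after challenge with 54-4 at 4 uM final (EC80).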
# TRPML1 ag – agonists of human TRPML1 channel | AID 624414 | TRPML1-expressing cells, Ca2+ dye fluorescence, FDSS; host cell line not named in the record; reference of the full effect not given here | Q9GZU1 | 410,000 tested, 0.12% active | activation, % (no concentration beside the values); in the data active = activation above about 50%; inconclusive = about 30% to 50%; inactive = below about 30%; also: 0% is about no effect; the text of the record puts the active cut at 80%
#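 TRPML1-DL cells, Tet-induced overnight (~16 h, 37 degrees C), loaded 45-90 min at room temperature with Ca8 no-wash calcium dye plus quencher. FDSS fluorescence: 10 s baseline, compound pin-transfer, 110 s agonist read, then EC80 54-4 (4uM final) and 110 s antagonist read.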
# Sfp PPTase inh – inhibitors of Bacillus subtilis Sfp phosphopantetheinyl transferase. Potency, µM, for the others: max response, negative = inhibition, most hits filed as inhibitors. 310,000 tested, 3.5% active. Q9F4F7. Biochemical Sfp PPTase activity, qHTS; active = well fitted inhibition curve with a large enough effect; inconclusive = small, poorly fitted or top-dose-only effect, or another doubt; inactive = no such curve, though single readings can be large or run the other way;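 also: the enzyme is Sfp with the accession as filed and its product quenches rhodamine fluorescence; potency is read from the fitted curve at half-maximal effect; 0% = enzyme reaction without inhibitor and -100% = no enzyme wells; top concentration of the series not given in the record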
#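 Fluorescence-quenching assay with 15 nM Sfp, 5 uM rhodamine-CoA and 12.5 uM BHQ-2-labelled ybbR peptide in pH 7.6 Hepes/MgCl2 buffer. Enzyme was pre-incubated with compound for 15 min at room temperature. Rate was taken from the 30-min fluorescence change (525/598 nm).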
# ClpP mod – qHTS Assay for Activators of ClpP; 340,000 tested, 1.9% active; ATP-dependent Clp protease proteolytic subunit (Bacillus subtilis (strain 168)), P80244; AID 651965, 2013; purified B. subtilis ClpP, FRET peptide cleavage, 20 min; Potency, µM (top dose mostly 57.5 µM), inactives show at the top dose activity change, negative = active; active = well fitted falling curve with a large enough effect; inconclusive = small, poorly fitted or top-dose-only effect; inactive = no such curve, though single readings can be large or run the other way; also: potency is read from the fitted curve at half-maximal effect; the source files actives as falling curves though it sought activators and does not explain the sign; nearly all actives have a fitted effect of over 65% in size; many hits overshoot -100%
# Target sequence (P80244 whole entry, looked up): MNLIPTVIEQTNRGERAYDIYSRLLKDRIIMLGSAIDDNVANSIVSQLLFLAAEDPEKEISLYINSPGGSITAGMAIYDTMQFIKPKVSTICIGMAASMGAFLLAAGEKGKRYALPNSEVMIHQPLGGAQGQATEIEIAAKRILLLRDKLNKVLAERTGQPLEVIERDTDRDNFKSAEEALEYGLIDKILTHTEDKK
#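 Buffer: 100 mM Tris/HCl pH8, 100 mM KCl, 0.05% low protease BSA, 2.5% glycerol, 0.01% Tween-20. ClpP 10 microg/mL final; 20 min RT; delta FRET normalized to ADEP and DMSO controls.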
# TRPV1 potentiator – human TRPV1 potentiation; TRPV1-expressing cells, Fluo-8 calcium influx, capsaicin EC20 potentiation; host cell line not named in the record; control for the full effect not named in the record; Q8NER1; potentiation, % at 8.33 µM; 320,000 tested, 0.02% active; active means potentiation above 80%; inconclusive means 30% to 80%; inactive means below 30%; also: 0% is about no effect
#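 Fluo-8 calcium influx in TRPV1-expressing cells, kinetic read (ex 480/em 520 nm). Compound added and read 3 min for agonist activity, followed by capsaicin at EC20 final and 2 min further read for enhancement.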
# Starred values were filed as active, the others as inactive; ? = inconclusive; . = not tested or not shown; & = joins results of further samples; [ ] = remark or other dose.
SMILES,PINK1 expr mod,Menin-MLL FL inh,TRPML1 inh,TRPML1 ag,Sfp PPTase inh,ClpP mod,TRPV1 potentiator
COC(=O)c1cccc(Nc2c(-c3ccc(SC)cc3)nc3nc[nH]n23)c1,1.1%,.,5.5,1.9,.,-5.2%,.
COC(=O)c1[nH]c2ccc(C)cc2c1NC(=O)C1=COCCO1,0.7%,-0.5,-22.2,1.4,1.8%,-7.3%,-18.5
O=C(Nc1cccs1)Nc1c(F)cc(F)cc1Br,-1.3%,16.0,21.3,0.1,?,-1.2%,-10.8
C=C(C)CNC(=O)c1ccc(OC2CCN(S(=O)(=O)N(C)C)CC2)cc1,3.1%,-5.5,-3.2,-1.0,11.7%,-0.5%,-8.8
CCN1C(=O)c2ccccc2Sc2ccc(C(=O)NCCN3CCOCC3)cc21,-1.0%,1.8,-3.9,-0.5,11.4%,-0.2%,?
COC(=O)c1ccn(Cc2ccccc2Cl)n1,-0.6%,-0.7,22.7,2.6,-27.4%,.,3.5
O=C(CCC(=O)N1CCOCC1)NCc1cccc(C(F)(F)F)c1,2.1%,.,-17.4,-0.9,.,-1.6%,-1.9
Cc1ccc(NC(=O)COC(=O)CSC(=S)N2CCOCC2)cc1C,1.8%,-4.4,-16.7,-0.4,12.7%,.,-5.1
O=C(c1cc(S(=O)(=O)N2CCCCC2)ccc1N1CCOCC1)N1CCN(Cc2ccccc2)CC1,0.8%,-2.5,-7.2,0.1,11.7%,.,-1.6
COc1cccc(C(c2ccccc2)N2C3CCC2CN(S(=O)(=O)c2ccc(F)cc2)CC3)c1 (stereo not given),-0.3%,.,-2.1,-0.3,.,-0.6%,?
CN1C(=O)c2oc3ccccc3c(=O)c2C1c1ccncc1 (stereo not given),-2.9%,3.7,-8.5,0.2,?,-0.7%,-6.6
CCN(CC)C(=O)c1ccc(-c2nnc(Nc3ccc(C(=O)NC)cc3)c3ccccc23)cc1,-1.2%,4.8,0.3,-0.6,8.6%,-4.5%,-6.8
CCc1nn2c(=O)cc(COC(=O)c3ccccc3NC(=O)c3cccs3)nc2s1,-0.5%,.,6.6,1.7,.,0.8%,.
CC(C)CC(N)c1cn([C@@H](CCC(=O)O)C(=O)N2CCNCC2)nn1 (stereo not given in full),0.5%,-1.2,13.5,-0.5,-4.2%,0.2%,-7.4
COC(=O)c1ccccc1NC(=O)CCCOc1cc(=O)n(C)c2ccccc12,2.3%,.,-18.3,0.2,.,-3.6%,.
CN(Cc1ccccc1)C(=O)CCN1C(=O)c2cccc([N+](=O)[O-])c2C1=O,1.0%,.,1.1,0.2,.,0.5%,.
Cn1cccc1/C=C1\SC(=Nc2ccccc2)NC1=O,7.3%,9.0,5.8,0.2,0.0%,-0.4%,-1.3
Cn1ccc(NC(=O)c2ccc(Cl)cc2Cl)n1,-0.6%,.,-11.9,-0.4,.,-0.1%,-7.5
COc1cc(/C=N/NC(=O)C(N)=O)cc(OC)c1O,0.9%,-5.5,-19.6,-0.2,-5.1%,-3.0%,?
O=C(CSc1ccc2ccccc2n1)NCCC1=CCCCC1,-1.5%,2.5,-4.6,1.7,-8.7%,-2.2%,-6.6
O=C(CSc1nnc(-c2ccco2)n1-c1ccccc1)N1CCN(C(=O)c2ccco2)CC1,0.8%,3.2,6.5,0.6,-5.7%,-1.5%,29.7
COC(=O)c1ccc(NC(=O)Cn2ccn3nc(-c4ccc(OC)cc4)cc3c2=O)cc1,1.2%,.,-0.5,1.8,.,-7.8%,.
CCn1ccc(C(=O)Oc2ccc(C(C)C)cc2)n1,1.5%[38.3 µM],1.2,-15.5,1.4,2.8%,-0.2%,-28.6
CCC(CO)Oc1cc(NCc2ccccc2O)c2ncn(C(C)C)c2c1 (stereo not given),1.0%,.,31.0,0.0,.,-4.7%,.
CCc1c(C)nc(N)n2c(SCC(=O)N3CCCC(C)C3)nnc12 (stereo not given),-4.4%[38.3 µM],1.8,12.2,-0.2,9.8%,1.1%,-2.6
COCCCNC(=O)Cn1c(=O)n(-c2ccccc2)c(=O)c2c1c1cc(OC)ccc1n2C,0.1%,.,21.2,0.8,.,4.3%,.
CCOC(=O)Cn1c(=O)c(-c2ccccc2NCc2ccccc2)nc2ccccc21,15.5%,.,9.2,2.0,.,0.0%,.
CN(CC(=O)NCc1ccco1)CC(=O)Nc1ccc(F)c(F)c1F,5.3%,.,-1.6,-0.4,.,.,.
COC(=O)c1[nH]c(C)c(/C(O)=C2\C(=O)C(=O)N(CCN(C)C)C2c2cccs2)c1C (stereo not given),0.0%,0.6,7.4,0.0,4.8%,4.6%,3.7
CCOC(=O)Cn1c(=O)cc(C)c2cccc(C)c21,8.4%,-7.3,6.1,1.9,14.1%,-3.8%,5.2
Cc1noc(C)c1S(=O)(=O)Nc1ccc(C(=O)O)cc1,0.6%,-8.9,10.1,-0.7,0.0%,0.8%,5.3
CCOC(=O)CNC(=O)CSc1nc(Cc2cccs2)nc2ccccc12,.,3.9,-2.8,-0.2,6.4%,0.8%,.
COc1ccc(C2C(C(=O)N3CCCCC3)c3ccccc3C(=O)N2C)cc1 (stereo not given),1.9%,4.8,-15.8,0.2,3.1%,-2.0%,10.8
Cc1ccc(Nc2cc(C)nn2-c2nc(C)cc(=O)[nH]2)cc1,3.1%,0.1,14.7,1.4,-4.7%,0.2%,0.4
COc1cccc(CC(=O)OCC(=O)NC2(C#N)CCCC2)c1,1.2%,.,-6.4,0.4,.,-1.1%,-0.2
CCc1ccc(C2c3c(oc4ccc(C)cc4c3=O)C(=O)N2c2nc(C)c(C)s2)cc1 (stereo not given),3.4%,.,-3.3,0.0,.,0.6%,.
CN(C)C(=O)c1ccc(-c2nccc(Nc3ccc(F)cc3)n2)cc1,0.2%,0.9,.,.,3.8%,.,.
O=C(CNC(=O)c1ccc(Cl)cc1)OCC(=O)c1ccccc1,3.7%,-0.1,1.3,-0.8,7.2%,2.7%,6.2
CCCc1cc(C(=O)N2CCN(C(c3ccccc3)c3ccccc3)CC2)no1,2.4%,16.7,-11.8,10.6,6.1%,-2.0%,-28.5
CC(CC(=O)N1CCN(S(=O)(=O)c2ccc(Cl)cc2)CC1)n1cncn1 (stereo not given),-0.1%,-0.4,19.9,-0.4,26.4%,.,0.0
CC(C)C(=O)Nc1ccc(Oc2ccc3c(c2)C(=O)NC3=O)cc1,0.8%,5.7,23.3,-1.1,13.9%,-1.4%,29.4
CC1(C)OCC(COC(=O)Nc2cccnc2)([N+](=O)[O-])CO1,2.1%,-4.9,-6.2,-0.2,15.2%,.,3.6
Nc1ccc(Cl)c(-c2nc3ncccc3o2)c1,1.3%,1.7,-1.8,1.0,10.2%,-8.3%,-2.0
CC(=O)c1ccc(NS(=O)(=O)c2cc(-c3cnc(C4CC4)o3)ccc2C)cc1,2.0%&4.6%,.,51.2&11.4,-0.6&-1.4,-0.8%,-13.0%&-8.6%,-20.4
Cc1ccc(S(=O)(=O)n2cnc(C)c2)cc1,0.9%,-0.6,.,.,6.2%,-1.7%,5.1
N#CCCN(Cc1cccnc1)C(=O)c1ccc(S(=O)(=O)N2CCOCC2)cc1,-0.8%,1.8,-9.1,0.0,-6.2%,-3.5%,3.9
Cc1nn(-c2ccccc2)c(Cl)c1/C=N\NC(=O)c1cncc(Br)c1,1.2%,2.0,26.8,1.6,5.2%,-2.0%,-1.9
O=C(CCN1C(=O)COc2ccccc21)NCCN1CCN(c2cccc(Cl)c2)CC1,.,3.7,0.9,-0.4,-1.6%,0.0%,.
O=C(NCCc1ccc(Cl)cc1)c1ccc(OCC2CCCO2)cc1 (stereo not given),-0.3%,1.7,-5.8,0.2,21.3%,.,-2.5
COc1cccc(C(=O)Nc2ccc3[nH]ncc3c2)c1OC,-1.4%,0.6,20.3,0.4,7.9%,0.1%,-12.1
Nc1cc(N)cc(C(=O)Nc2ccc3c(c2)C(=O)NC3=O)c1,2.7%,-0.6,-20.3,-0.1,-4.7%,.,14.8
O=C(NCc1cccc(Cl)c1)c1ccc2ccccc2n1,-0.9%,3.5,2.2,4.4,-4.3%,.,-9.1
O=c1c2cc(N3CCOCC3)ccc2[nH]c(=S)n1Cc1ccco1,5.4%[38.3 µM],3.4,46.3,-1.0,7.94µM*,0.4%,6.5
Cc1ccc(NC(=O)CSc2n[nH]c(-c3ccco3)n2)c(C)c1,2.0%,-2.1,10.4,-1.0,-1.2%,.,6.4
COc1ccc(-c2cnc3c(NC=O)cc(-c4cccc(NS(C)(=O)=O)c4)cn23)cc1OC,0.3%,.,.,-0.4,.,?,.
CCOc1ccc(NC(=O)Nc2ccc(NC(C)=O)cc2)cc1,1.1%,-0.8,4.0,-0.8,6.6%,.,-39.3
Cc1ccccc1NC(=O)COC(=O)C1(C)CC1(Cl)Cl (stereo not given),-0.5%,0.0,-4.0,-0.2,-5.6%,.,-8.5
CNc1ncc(C(=O)c2ccc(Br)cc2)s1,-0.7%,0.6,1.4,1.0,15.8%,.,3.7
COc1cccc(C(=O)Nc2nnc(CCS(=O)(=O)c3ccc(C)cc3)s2)c1,-0.2%,.,-10.8,0.7,-1.7%,-4.6%,-6.7
Cc1cc(NC(=O)NC(C(F)(F)F)C(F)(F)F)no1,0.3%,2.5,31.5,0.0,3.0%,.,-4.9

# Next section.
SMILES,PINK1 expr mod,Menin-MLL FL inh,TRPML1 inh,TRPML1 ag,Sfp PPTase inh,ClpP mod,TRPV1 potentiator
O=C(c1cccc(NS(=O)(=O)c2cccc(F)c2)c1)N1CCCC1,-0.6%,-5.2,-12.9,-0.1,7.4%,-2.0%,1.0
Cc1ccc(NC(=S)Nc2cc(C(=O)O)ccc2N2CC3CC(C2)c2cccc(=O)n2C3)cc1C (stereo not given),-1.3%,1.2,-3.9,0.8,56.2µM*,.,-2.8
Cc1cn(Cc2ccccc2)c(=O)[nH]c1=O,?,-0.6,-16.1,0.3,13.1%,1.9%,19.2
O=C(NCc1ccc(F)cc1)c1ccc(CSc2nc3ccncc3n2Cc2ccc(F)cc2)cc1,0.8%,.,-0.3,0.8,.,-15.8%,.

# Assay outcomes from PubChem BioAssay.
